# LANA-nucl inh: LANA-nucleosome interaction inhibition; FITC-LANA1-23 / chicken nucleosome fluorescence polarization; active compounds read low; z-score (no concentration beside the values); actives 0.3% (n = 51,000);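 active means both repeat wells score below -2 in polarization z-score versus plate sample wells, excluding overly bright wells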;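 further: 100 nL library stock added to about 30 µL; numbers are from one replicate; some results filed as inactive read as strong as hits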
#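 Test system: purified chicken nucleosomes with FITC-labelled LANA N-terminal peptide (1-23); Input: 240 nM purified chicken nucleosomes (480 nM peptide binding sites), final; Medium: TEN-BT buffer, pH 7.5; Timing: 10–45 min, room temperature; Technique: fluorescence polarization, 480 nm excitation, 535 nm parallel and perpendicular emission; Replication: duplicates.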
# Ab BasE inh: inhibitors of Acinetobacter baumannii siderophore enzyme BasE. purified BasE, fluorescence polarization binding displacement. inhibition, % (test concentration not listed). actives 0.1% (n = 84,000);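 active means both replicates above 25% with normal brightness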;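 further: 0% = negative plate control signal and 100% = positive plate control signal; stock transfer was 100 nL into about 30 µL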
# * = called active by the depositor; x = not tested or not shown; & = joins results of further samples.
SMILES,LANA-nucl inh,Ab BasE inh
O=C(N/N=C/c1ccc(N2CCOCC2)cc1)c1ccc(Cl)cc1,x,-3.8
COc1cc2c(c(OC)c1OC)C(c1ccc(N(C)C)cc1)C1=C(CC(C)(C)CC1=O)N2 (stereo not given),0.096,-0.1
Cc1ccc(-n2c(N)c(C(=O)NCc3ccco3)sc2=S)cc1,0.977,-0.9
Cc1csc(-n2c(C)ccc2C)n1,x,1.5
COC(=O)NC(C)N1C(=O)C2C3C=CC(C3)C2C1=O (stereo not given),x,-0.1
O=C(N/N=C1\CC2CC=CC12)c1ccc(O)cc1 (stereo not given),x,0.0
Cc1cc2c(SCC(=O)c3cccs3)ncnc2s1,0.747,-2.2
COc1cc(/C=C2\SC(=O)N(CCN)C2=O)ccc1OC(F)F,x,0.4
O=C(Nc1ccccc1)N1CC2CCCN2c2ccccc21 (stereo not given),-0.271,-0.6
Clc1ccc(C2=NNC(c3ccc4c(c3)OCO4)C2)cc1Cl (stereo not given),-1.02,2.9
O=C(CNC(=O)c1cccs1)c1ccc(F)cc1,0.44,2.9
CN[C@@H]1[C@@H](O[C@H]2O[C@H](CO)[C@@H](N)[C@H](O)[C@H]2O)O[C@H]2C[C@@H](N)[C@H](O[C@H]3[C@H](O)[C@@H](O)[C@H](N)C[C@@H]3N)O[C@@H]2[C@@H]1O,0.595&0.0975,-2.3
Nc1ccccc1C(=O)NC1CC1,x,-0.1
CC(C)NC(=O)Cn1ncc2c3ccccc3n(C)c2c1=O,0.0255,1.1
O=C(OCN1C(=O)c2ccccc2C1=O)C1CCN(c2ccc(C(F)(F)F)cn2)CC1,x,-0.1
Cc1ccc(C(=O)NN2C(C)CCCC2C)o1 (stereo not given),x,1.1
C(=C\c1ccccc1)/C=N/Nc1nn[nH]n1,x,0.8
C/C(Cc1ncn(-c2cc(C)on2)n1)=N\OC(=O)Nc1ccc(Cl)cc1,0.049,2.4
O=C(COc1cc(Cl)ccc1Cl)Nc1cccc2nsnc12,x,2.9
O=C(COCc1cc(-c2ccc3c(c2)OCO3)on1)N1CCCC1,0.311,0.7
Cc1cc(C(C)(C)C)cc(C)c1I,x,-1.1
CCOC(=O)CC(N)c1cccs1 (stereo not given),-0.667,2.0
CCn1c(SC(C)C(=O)NC(N)=O)nnc1-c1ccccc1 (stereo not given),x,0.4
Cc1oc(C(C)(C)C)cc1C(=O)Nc1ccc(N(C)C)cc1,2.47,-1.6
O=C(Nc1ccc(NC(=S)NC(=O)c2cc3ccccc3o2)cc1)c1ccco1,x,-0.4
# Additional records:
SMILES,LANA-nucl inh,Ab BasE inh
O=C(c1ccccc1)n1cc2c(n1)-c1ccccc1CS2,x,5.1
N#Cc1ccc(C(=O)NC2CCCc3ccccc32)cc1 (stereo not given),x,2.2
Cc1cc(C)n(CCCNC(=O)CSc2nnc(C(F)(F)F)n2C)n1,x,0.0
C/C(N)=C(/C#N)C(=O)CSc1n[nH]c(C(C)C)n1,x,1.4
O=C(COc1cccc2ccccc12)N1c2ccccc2CCc2ccccc21,x,3.0
O=C(CSc1nnc2scc(-c3ccccc3)n12)N1CCCCCC1,x,0.3
CC(C)=CCCC12CCC(CO)(CO1)C(C)C2 (stereo not given),0.395,4.5
COCc1cc(C)n(CC(N)=O)c(=O)c1C#N,-0.073,-1.9
COc1cc(S(=O)(=O)N(CCc2ccccc2)Cc2cccs2)ccc1-n1cnnn1,-0.456,1.0
Cc1cc(C)n(CC(O)Cn2c3ccccc3c3ccccc32)c(=O)n1 (stereo not given),-1.22,-0.9
CCC(=O)N1CCN(c2cc(Cl)ccc2C)CC1,-0.704,1.4
CSc1cccc(-n2c(C)ccc2C)c1,x,-4.2
Cc1ccc(C(=O)Nc2ccc(-c3nnc(-c4ccco4)o3)cc2)cc1C,0.779,1.5
CSc1scc(NC(=O)c2ccc(Cl)cc2)c1S(=O)(=O)C(C)C,x,-1.2
O=c1cc(C(F)(F)F)[nH]n1-c1ccccc1,-0.643,2.8
CC1Cc2ccccc2N1S(=O)(=O)c1ccccc1 (stereo not given),-0.758,0.5
O=c1[nH]c(=O)n(C2CCCO2)cc1F (stereo not given),0.486&0.105&0.333,1.4
CC(C(=O)NCc1cccnc1)N1Cc2ccccc2C1=O (stereo not given),-0.149,0.3
CN1CCN(c2ccc(CNS(=O)(=O)c3ccc4c(c3)CCO4)cc2)CC1,x,0.5
CC(C)[C@@H]1NC(=O)[C@H](Cc2ccccc2)NC(=O)[C@@H](CC(=O)O)NC(=O)CNC(=O)[C@H](CCCN=C(N)N)NC1=O,0.072,1.0
COC(=O)C1=C(C)c2oc(N)nc2C1c1ccc(C(C)C)cc1 (stereo not given),-0.891,0.1
O=C(COC(=O)c1n[nH]c2ccccc12)Nc1ccc(N2CCOCC2)cc1,x,2.5
Nc1nc2c(s1)CCCC2,2,-4.8
CN(C)C=Nc1c(C#N)c2n(c1C(=O)c1ccc(Br)cc1)CCC2,1.44,-1.4
CCOc1ccc(C(=O)C(C)OC(=O)c2cccc(-n3cnnn3)c2)cc1 (stereo not given),x,-6.4

# Sorted by heavy-atom count (ascending): 6 of the compounds above
SMILES,LANA-nucl inh,Ab BasE inh
C/C(N)=C(/C#N)C(=O)CSc1n[nH]c(C(C)C)n1,x,1.4
CC1Cc2ccccc2N1S(=O)(=O)c1ccccc1 (stereo not given),-0.758,0.5
COC(=O)C1=C(C)c2oc(N)nc2C1c1ccc(C(C)C)cc1 (stereo not given),-0.891,0.1
CN(C)C=Nc1c(C#N)c2n(c1C(=O)c1ccc(Br)cc1)CCC2,1.44,-1.4
Cc1ccc(C(=O)Nc2ccc(-c3nnc(-c4ccco4)o3)cc2)cc1C,0.779,1.5
CC(C)[C@@H]1NC(=O)[C@H](Cc2ccccc2)NC(=O)[C@@H](CC(=O)O)NC(=O)CNC(=O)[C@H](CCCN=C(N)N)NC1=O,0.072,1.0

# 3 entries drawn at random from those above:
SMILES,LANA-nucl inh,Ab BasE inh
O=C(COc1cccc2ccccc12)N1c2ccccc2CCc2ccccc21,x,3.0
Cc1cc(C)n(CCCNC(=O)CSc2nnc(C(F)(F)F)n2C)n1,x,0.0
CC(C)[C@@H]1NC(=O)[C@H](Cc2ccccc2)NC(=O)[C@@H](CC(=O)O)NC(=O)CNC(=O)[C@H](CCCN=C(N)N)NC1=O,0.072,1.0

# Remaining list, next part:
SMILES,LANA-nucl inh,Ab BasE inh
Cc1ccc(S(=O)(=O)N2CCN(C(=O)c3ccc(OCc4c(C)noc4C)cc3)CC2)cc1,x,-1.6
COC(=O)c1cc(C#N)c(SCC(=O)C(C)(C)C)nc1C(OC)OC,-0.0165,0.3
CCN(CC(=O)Nc1ccc(I)cc1)CC(=O)NC1CCS(=O)(=O)C1 (stereo not given),x,3.0
CCN(C(=S)NCCN1CCOCC1)c1cccc2ccccc12,x,0.5
C[C@H](N=C1NS(=O)(=O)c2ccccc21)C(=O)OCc1cn2ccccc2n1,x,1.7
Cc1ccc(-c2n[nH]c(Cc3ccccc3)n2)cc1,-1.01,1.7
CNS(=O)(=O)c1ccc(NC(=O)C2CC3C=CC2C3)cc1 (stereo not given),-0.136,2.1
CS(=O)(=O)c1ccccc1C(=O)Nc1ccc(C(F)(F)F)cc1,x,0.2
Cc1nnc2c(N3CCCC3)nc3ccc(C(=O)c4ccccc4)cc3n12,x,-0.3
O=C(Cn1c(SCc2ccccc2F)nc2ccncc21)NCC1CCCO1 (stereo not given),-1.27,-1.2
O=C(NCc1ccccc1)c1cccnc1N1CCOCC1,0.3,-1.3
O=C(CCC1CCCC1)NCc1ccco1,-0.057,1.7
COc1ccc2c(CC(=O)OC(C)C(N)=O)coc2c1 (stereo not given),x,-0.1
COc1ccc(C2C3C(=O)N(c4ccccc4)C(=O)C3ON2c2ccccc2)cc1 (stereo not given),-0.782,0.2
O=C(O)c1ccc(S(=O)(=O)c2ccc(Cl)cc2)cc1,x,3.2
CSc1nccc(-c2sc(SC)c(C#N)c2-c2ccccc2)n1,0.404,1.5
Cc1cc(C)n(C(=O)c2cc(-c3ccc(C)o3)nc3ccccc23)n1,-0.975,2.0
Oc1cccc(N=Cc2c[nH]c3ccccc23)c1,0.414,-1.8
CSc1ncc(C(=O)NC(C)c2ccccc2)c(C)n1 (stereo not given),-0.471,-1.0
CCCNC(=O)c1c(N)n(-c2ccccc2)c2nc3ccccc3nc12,-1.33,0.4
Fc1nc(Nc2ccccc2)c2c(c1Cl)Oc1ccccc1O2,x,-0.9
Cn1c(O)c(C=NCC2(C)CC(O)CC(C)(C)C2)c(=O)n(C)c1=S (stereo not given),0.481,1.3
O=C(c1cccc(-n2cnnn2)c1)N1CCOCC1,-0.784,3.0
CCOC(=O)C1=C(Cn2ncc(Cl)c(Cl)c2=O)NC(=O)NC1C (stereo not given),x,0.7
CC1CC(C)CN(C(=O)c2cc3ccccc3oc2=O)C1 (stereo not given),x,0.5
# Other structures.
SMILES,LANA-nucl inh,Ab BasE inh
CC(C)C(=O)Nc1cccc(-c2nc3ccccc3o2)c1,0.634,1.4
CC1CCCC(C)N1Cn1nc2c(Cl)cc(Cl)cn2c1=S (stereo not given),x,1.8
Cc1ccc(-c2cc(C(=O)NCc3cn(C)nc3C)c3cc(Br)ccc3n2)cc1,x,1.8
CSCCNC(=O)c1ccccc1N,0.369,0.9
CCOC(=O)C1CCN(C(=O)CCc2ccccc2)CC1,-0.902,1.2
O=C1CSC(c2cccnc2)N1Cc1cccnc1 (stereo not given),-0.168,0.2
O=C1CCN(Cc2ccccc2)C(=O)N1c1ccc(F)cc1,-0.425,x
COc1ccc(-c2nnc(SCN3C(=O)c4ccccc4C3=O)n2C(C)C)cc1,x,3.1
COC(=O)c1ccccc1Oc1c(F)c(F)nc(N2CCOCC2)c1F,x,-0.9
COc1ccc(CN2CCN(Cc3ccco3)CC2)c(OC)c1OC,0.881,3.9
CN1C(c2ccccc2)CC(C)(O)CC1c1ccccc1 (stereo not given),0.294,1.5
N#CC1=C(N)SC(N)=C(C#N)C1c1cccc2ccccc12,11.7,4.9
CCCn1nc(C(=O)OCc2cccc(S(=O)(=O)N(C)C)c2)c2ccccc2c1=O,x,-0.3
CCOc1ccc(OC(=O)c2sc3ncn(CC)c(=O)c3c2C)cc1,x,2.2
CCC(=O)Nc1nc2ccccc2n1CCN1CCOCC1,-0.262,1.8
O=C(C1CN(Cc2nc(-c3ccc(Cl)cc3)no2)c2ccccc2O1)N1CCOCC1 (stereo not given),x,0.9
Cc1nn(-c2ccccc2)c(N2CCCCC2)c1C=C(C#N)C#N,x,-1.0
CCOc1ccc2nc(NC(=O)c3cccc(OC)c3)sc2c1,x,-0.5
COc1cc(NC(=O)/C(=C/c2ccco2)NC(=O)c2ccc(C)c(C)c2)cc(OC)c1OC,-1.54,1.7
Cc1c(C(=O)NN)c2cc(O)ccc2n1C,0.116,0.4
O=c1cc(CN2CCN(S(=O)(=O)/C=C/c3ccccc3)CC2)c2ccc(O)cc2o1,x,-2.0
COc1cccc(CNn2cnnc2)c1O,-0.281,-2.4
COc1cccc(CNC(C)C(=O)Nc2ccc(S(N)(=O)=O)cc2)c1 (stereo not given),x,0.4
COc1ccc(C)cc1C(=O)CCC(=O)NC1CCCCC1,x,-5.2
CCOC(=O)c1c(SCC)nc(=O)[nH]c1C,-1.59,2.4
# The listing continues.
SMILES,LANA-nucl inh,Ab BasE inh
CCCOc1ccc(C(=O)Nc2ccc(-c3nc4ccccc4o3)cc2)cc1,x,1.8
COc1ccc2cc3c(N)nn(C(=O)c4cncc(Br)c4)c3nc2c1,0.496,2.3
CCCNc1c(NC(C)=O)c(=O)oc2ccccc12,0.344,-1.2
O=S(=O)(CCSc1nc2ccccc2s1)c1nc2ccccc2s1,x,0.2
COc1ccc(/C=N/n2cn[nH]c2=S)cc1,-1.15,1.6
Fc1nc(N2CCCC2)c(F)c(Oc2ccc(Cl)cc2)c1F,0.552,2.2
Cc1nc2ccc(C(=O)OCC#N)cc2nc1C,x,4.9
O=C(N/C=C/c1ccco1)OCc1ccc(C(F)(F)F)cc1,0.541,x
Cc1ccc(C2C(C(=O)O)c3ccccc3C(=O)N2C)o1 (stereo not given),-0.643,-0.4
COc1ccc(Nc2nc(N3CCN(S(=O)(=O)N(C)C)CC3)nc3ccccc23)cc1,-0.12,-1.7
Cc1cc(C)c2c(N)c(S(=O)c3ccc(C(C)(C)C)cc3)sc2n1 (stereo not given),x,1.9
CC1CCCCN1S(=O)(=O)c1ccc(S(=O)(=O)N2CCN(c3ncccn3)CC2)cc1 (stereo not given),-0.416,-0.2
COc1ccc(N(CC(=O)c2cc(C)n(C)c2C)S(=O)(=O)c2ccc3c(c2)OCCO3)cc1,x,-5.4
Cn1cccc1/C=C1\CN(Cc2ccccc2)C/C(=C\c2cccn2C)C1=O,5.5,-38.0
Cc1cc2nc3c(=O)n(C)c(=O)[nH]c3nc2cc1N=CN(C)C,-2.14*,36.7
Cc1ccc(-c2csc(C(C#N)=C3CCCC3)n2)cc1,-0.127,-0.1
NC(=O)NC(=O)CSc1nncn1-c1ccccc1,x,1.7
CNC(=S)NNS(=O)(=O)c1ccc(Cl)cc1,-0.746,3.1
CCn1c(O)c(/C=C2/C=CC=N2)c(=O)[nH]c1=S,x,3.3
O=C(NCc1ccc2c(c1)OCO2)Nc1ccc2ccccc2c1,2.67,1.4
S=C(c1cccc(Br)c1)N1CCNCC1,1.05,-1.1
c1ccc(-c2csc3ncn4cnnc4c23)cc1,x,-1.2
Cc1[nH]n(-c2ccccc2)c(=O)c1C=Nc1cccc(N)c1,x,22.7

# Already shown: 4 of the compounds above.
SMILES,LANA-nucl inh,Ab BasE inh
O=C(NCc1ccc2c(c1)OCO2)Nc1ccc2ccccc2c1,2.67,1.4
S=C(c1cccc(Br)c1)N1CCNCC1,1.05,-1.1
c1ccc(-c2csc3ncn4cnnc4c23)cc1,x,-1.2
Cc1[nH]n(-c2ccccc2)c(=O)c1C=Nc1cccc(N)c1,x,22.7

# Compound activity as filed in PubChem.

# These rows are one share of the data; the hit share may differ from the screen's.
